Bioassay records from PubChem BioAssay.
MgrA DNA FP = S. aureus MgrA activity modulators, primary screen, biochemical, S. aureus Newman, fluorescence polarization. inhibition, %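 (about 10 µg/mL by stock and volumes)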. MgrA-DNA binding. 84,000 compounds, 0.13% hits. AID 602314, 2012;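 active means above 50% in either of two replicates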;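 further: 0% = protein plus DNA without compound and 100% = DNA alone without protein; higher means less MgrA bound to DNA so lower polarization; one replicate is shown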
S aureus helic = inhibitors of S. aureus replicative helicase, primary screen, biochemical, fluorescence unwinding readout. purified S. aureus helicase, fluorescence unwinding assay; about half of the hits fall short of the stated cut. replicative DNA helicase (DnaC/DnaB), Staphylococcus aureus. inhibition, %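 (tested at about 80 µM)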. 120,000 compounds, 0.05% hits;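 active means both duplicates at 50% or more, or one of them with a favoured structure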;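 further: 0% = mean of negative control wells and 100% = mean of positive control wells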
Starred values were filed as active, the others as inactive; · = no result given; & = joins results of further samples. A portion of the library; the hit share may differ from the screen's.

SMILES | MgrA DNA FP | S aureus helic
CCOc1ccc(CCN=C2CC(c3ccccc3)CC(=O)/C2=C(/O)CC)cc1OCC (stereo not drawn) | -0.4 | 9
CCCn1cc(S(=O)(=O)c2ccc(OC)cc2)c(=O)c2cc(F)c(N3CCN(C)CC3)cc21 | · | -9
Cc1ccc2cc3cc(C(=O)NCc4cccs4)sc3nc2c1 | -0.7 | 6
CN(C(=O)CN1N=NC2C(=O)N(c3ccc(Br)cc3)C(=O)C21)c1ccccc1 (stereo not drawn) | · | 20
CNC(=O)c1c[nH]c2ccc(S(=O)(=O)Nc3ccc(C(C)C)cc3)cc2c1=O | · | 16
CC(C)NC(=O)C1CCN(C(=O)c2ccc(-n3ccc4ccccc43)s2)CC1 | · | 10
COC(=O)c1sccc1Cl | 0.5 | ·
COc1ccccc1CC(=O)O/N=C/c1ccc2c(c1)OCO2 | -1.0 | ·
COc1cccc(CN(C)Cc2cc(=O)oc3cc(O)c(Cl)cc23)c1 | · | 1
CC(=O)Oc1c(Sc2c(F)c(F)c(F)c(F)c2F)c(C)nn1C(C)(C)C | -0.3 | 10
CC(C)(C)CC(C)(C)NC(=O)C1CCCO1 (stereo not drawn) | 4.0 | 10
N#Cc1cc2c(ccc3ccccc32)oc1=O | 2.8 | 2
N=C(N=Nc1c(O)n(Cc2ccccc2)c2ccccc12)SCC(=O)Nc1ccccc1 | 2.0 | 4
CCN(CC)C(=O)CSc1nc(N)c(C#N)c(CC(C)C)c1C#N | 0.1 | -8
Cc1nc(NCC2CCCO2)nc2c1C(=O)CC(C)(C)C2 (stereo not drawn) | -1.4 | 7
CCN(CC)C(=O)c1cc2ccccc2oc1=O | 2.0 | ·
COc1ccc(CNC(=O)c2cccn3c(=O)c4c5c(sc4nc23)CCCC5)cc1 | 4.1 | 15
CC1(C)OC(=O)C(=Cc2ccc(F)cc2)C(=O)O1 | · | 35
N#Cc1ccc(CS/C(N)=N/N)cc1 | -2.7 | ·
O=C(CCc1nc(-c2ccc(Cl)cc2)no1)Nc1cccc(Cl)c1Cl | -1.4 | ·
OC1CC(c2ccccc2)NC2(CCCCC2)C1 (stereo not drawn) | · | -5
CCc1nc2ccc(C(=O)NC)cc2nc1CC | · | 4
CCOC(=O)C(C)(C)Sc1ncnc2nc[nH]c12 | · | 15
CCCCOc1ccc2c(c1)C(=O)c1cc(O)ccc1-2 | 0.9 | 16
CN1C=CC=C/C1=C1\SC(=S)N(Cc2ccccc2)C1=O | · | -23
CC(C)(Sc1cc(C(C)(C)C)c(O)c(C(C)(C)C)c1)Sc1cc(C(C)(C)C)c(O)c(C(C)(C)C)c1 | -3.3&3.0 | ·
O=C(O)CSc1nncc2ccccc12 | 1.6 | ·
CSCCNC(=O)Nc1ccc(Cl)cc1 | · | -39
CC1=NN(CCC(=O)O)CC1 | -3.1 | 14
c1cncc(CN2CNc3nc4ccccc4n3C2)c1 | · | -15
CCc1nn(C(C)C(=O)N2CCN(c3cccc(OC)c3)CC2)c(=O)c2cc3occc3n12 (stereo not drawn) | · | -10
CCCCCCCCCC1NC(C(=O)O)Cc2c1[nH]c1ccccc21 (stereo not drawn) | 4.9 | ·
Cn1c(=O)c2cnc(N3CCCCC3)nc2n(C)c1=O | · | -12
COC(=O)c1cnc(Nc2ccccc2)nc1C(F)(F)F | 1.3 | ·
Cc1c(CO)c2ccccc2n1Cc1ccccc1 | · | 41
Cc1ccccc1OCC(=O)NN=C1CCN(C)CC1 | · | -28
CC(C)C(c1nnnn1C(C)(C)C)N(Cc1cc2cc3c(cc2[nH]c1=O)OCCO3)C1CCCCC1 (stereo not drawn) | 4.0 | 9
NC(=O)c1ccc(F)c(F)c1 | · | -7
O=C1CC(C(=O)Nc2cccc(F)c2)n2c(nc3ccccc32)N1 (stereo not drawn) | · | -24
Cc1cccc(C(=O)NCCCc2nc3ccccc3[nH]2)c1 | · | 2

Compound profiles (already shown). Order of screens: MgrA DNA FP, S aureus helic
O=C(O)CSc1nncc2ccccc12 as listed: 1.6, ·
CC(C)C(c1nnnn1C(C)(C)C)N(Cc1cc2cc3c(cc2[nH]c1=O)OCCO3)C1CCCCC1 (stereo not drawn) as listed: 4.0, 9
Cc1ccccc1OCC(=O)NN=C1CCN(C)CC1 as listed: ·, -28

The listing picks up; the two compounds before the break are reprinted first.
SMILES | MgrA DNA FP | S aureus helic
O=C1CC(C(=O)Nc2cccc(F)c2)n2c(nc3ccccc32)N1 (stereo not drawn) | · | -24
Cc1cccc(C(=O)NCCCc2nc3ccccc3[nH]2)c1 | · | 2
CC1CCN(C(=O)CSc2nc(-c3ccco3)nc3c2c(=O)n(C)c(=O)n3C)CC1 | 4.3 | 14
CSc1cccc(NC(=O)CNS(=O)(=O)c2ccc(C)cc2)c1 | 1.9 | -1
COc1ccc2nc(Nc3nc4ccccc4s3)sc2c1 | · | 1
CCS(=O)(=O)c1ccc(OC)c(N2NOC=C2O)c1 | 0.7 | 7
Cc1noc(C)c1-c1nc(CS(=O)(=O)c2ccsc2)no1 | · | -14
CCOC(=O)c1ccc(N=C2SC(C(=O)Nc3cccc(C)c3)CC(=O)N2C)cc1 (stereo not drawn) | -1.0 | ·
COc1ccc(C)cc1CCNCc1cnn(-c2ccccc2)n1 | · | 0
c1ccc2c(c1)CCN(c1nc3cc4c(cc3s1)OCO4)C2 | 1.8 | 6
CCN(CC)CC(=O)Nc1sc2c(c1C#N)CCCC2 | 0.2 | -1
CC(C)CCn1c(=O)c2ccccc2n2c(CSc3n[nH]c(N)n3)nnc12 | · | -12
CN1/C(=C/C(=O)CSC2CCCC2)C(C)(C)c2ccccc21 | -1.5 | -14
CCCCOc1ccccc1C(=O)N(Cc1cccc(F)c1)Cc1ccco1 | · | -18
COC(=O)c1sc(N)c(C(=O)OC)c1COC(=O)CSc1nnnn1-c1cc(C)ccc1C | · | 14
CC1CCN(S(=O)(=O)c2cn(CC(=O)N(C)Cc3ccccc3)c(=O)c3ccccc23)CC1 | -0.5 | 6
Cc1cc(=O)oc2cc(OCC(=O)Nc3ccccc3)ccc12 | · | 13
O=C(CN1CCCCC1)Nc1nonc1NC(=O)CN1CCCCC1 | 1.2 | 12
COc1cccc(C(=O)NCc2nc(-c3ccccc3Cl)no2)c1 | · | 12
Cc1onc(-c2ccccc2)c1C(=O)NC1CCS(=O)(=O)C1 (stereo not drawn) | -1.2 | ·
Cc1[nH]c2ccccc2c1C(=O)C(C)N1CCN(C(=O)c2ccccc2)CC1 (stereo not drawn) | · | 14
NC(CC(=O)O)c1ccsc1 (stereo not drawn) | 1.2 | ·
COc1ccc(C(CCNCc2ccccc2)C2CCOC(C)(C)C2)cc1 (stereo not drawn) | 0.7 | 14
Fc1ccc(-n2c(Cc3ccsc3)n[nH]c2=S)cc1 | · | 32
Cc1cccc(N2C(=O)c3ccc(C(=O)Nc4ccccc4O)cc3C2=O)c1 | · | 5
CCc1ccc[n+](-c2[nH]c(=O)sc2/C=N/N=C(/N)[O-])c1 | · | -13
CCN(CC)S(=O)(=O)c1ccc(Cl)c(C(N)=O)c1 | -0.1 | 28
CC12C=CC(=O)C=C1CCC1C2=CCC2(C)C1CC[C@@H]2C(=O)CN1CCN(c2cc(N3CCCC3)nc(N3CCCC3)n2)CC1 (stereo partly drawn) | 1.4 | ·
Cc1ccc(NC(=O)c2ccc3ncsc3c2)c(O)c1 | · | 1
O=c1[nH]c2ccccc2n1CN1CCC(c2nc3ccccc3s2)CC1 | · | -11
S=C(Nc1ccc(Cl)cc1)Nc1ccccn1 | 1.2 | ·
O=C1c2cccnc2C(=O)N1c1ccccc1 | · | 5
c1cnc(SCc2cn3ccsc3n2)nc1 | · | -3
C/C(N)=N\N(C)c1cccc(F)c1C#N | 3.6 | ·
Cc1sc2c(c1C)c(=O)nc1scc(CC(=O)NCCO)n12 | · | 5
C[N+]12CCCCC1C(COC(=O)c1ccccn1)CCC2 (stereo not drawn) | -1.4 | -1
COc1ccc(C2=NN(C(=O)CNc3ccccc3C(=O)Nc3ccccc3)C(c3ccco3)C2)cc1 (stereo not drawn) | · | -4
CCN1CCN(c2c(C(=O)c3ccc(OC)cc3)cnc3ccccc23)CC1 | 5.5 | -11
OC1(c2ccc(Cl)cc2)CCN(Cn2nnc3ccccc32)CC1 | -1.2 | ·
Cc1ccccc1N(CC(=O)NC1=NCCS1)S(C)(=O)=O | · | 10
O=C(NCC1CCCO1)NC1CCCCC1 (stereo not drawn) | -0.5 | -5
Cc1csc(-c2nc(-c3ccc(Cl)cc3)no2)c1Cl | -2.0 | ·

Looked up one by one from the list above:
SMILES | MgrA DNA FP | S aureus helic
C[N+]12CCCCC1C(COC(=O)c1ccccn1)CCC2 (stereo not drawn) | -1.4 | -1
OC1(c2ccc(Cl)cc2)CCN(Cn2nnc3ccccc32)CC1 | -1.2 | ·
COc1ccc(C(CCNCc2ccccc2)C2CCOC(C)(C)C2)cc1 (stereo not drawn) | 0.7 | 14
c1cnc(SCc2cn3ccsc3n2)nc1 | · | -3
COc1ccc(C2=NN(C(=O)CNc3ccccc3C(=O)Nc3ccccc3)C(c3ccco3)C2)cc1 (stereo not drawn) | · | -4
Cc1cccc(N2C(=O)c3ccc(C(=O)Nc4ccccc4O)cc3C2=O)c1 | · | 5
C/C(N)=N\N(C)c1cccc(F)c1C#N | 3.6 | ·

(more compounds)
SMILES | MgrA DNA FP | S aureus helic
C=CCN1C(=S)N(c2ccccc2)C2CS(=O)(=O)CC21 (stereo not drawn) | · | 6
CC1(C)C2CCC1(C)C(NC(=O)c1cc(=O)[nH]c3ccccc13)C2 (stereo not drawn) | · | 8
CCC(Oc1cccc(Cl)c1)C(=O)NN1CCN(C)CC1 (stereo not drawn) | 0.9 | 1
O=c1c2cccc3cccc(c32)c2nc3ccccc3n12 | -0.4 | ·
COc1ccc(N(C)C(=O)NCc2noc3ccccc23)c(OC)c1 | · | -1
Cc1ccc(S(=O)(=O)N(C)CC(=O)N2CCC(C)CC2)cc1 | 1.6 | -5
O=C(Cn1[nH]c(=O)c2ccccc2c1=O)NC1CCCc2ccccc21 (stereo not drawn) | · | 15
COc1ccc(/C=C2\CCCC3C2=NN(C(=O)c2ccco2)C3c2ccc(OC)c(OC)c2)cc1OC (stereo not drawn) | 1.7 | 6
CN1CCN(C(=O)CSc2nc(-c3ccc(F)cc3)cc(C(F)(F)F)c2C#N)CC1 | -0.9 | 11
Nc1ccc(C(=O)Nc2ccc(-c3nc4ccc(NC(=O)c5ccc(N)cc5)cc4s3)cc2)cc1 | 1.9 | ·
Nc1ccc2c(c1)ncn2CCCn1cnc2cc(N)ccc21 | 0.3 | -7
CCOC(=O)c1csc(-c2csc(C)n2)n1 | -0.9 | ·
CCOC(=O)CSc1nc2ccccc2c(=O)[nH]1 | · | 8
CCCC1(C(=O)OC)NC(c2ccco2)C2C(=O)N(C)C(=O)C21 (stereo not drawn) | 1.4 | -5
CCOc1ccc(C2C(C(=O)OC(C)C)=C(C)NC3=C2C(=O)CC(c2ccc(OC)cc2)C3)cc1OC (stereo not drawn) | -0.8 | ·
N#Cc1c(NCSCc2ccccc2)sc2c1CCCCC2 | -5.1 | 5
Cn1nc(C2CC2)cc1C(=O)O | -0.7 | -12
CCOc1ccc(NC(=O)CCS(=O)(=O)c2cc3c(cc2C)NC(=O)CO3)cc1 | · | -11
CCCn1c(=O)c2ccccc2n2c(SCC(=O)N3CCN(C(=O)OCC)CC3)nnc12 | · | -6
CN(CC(=O)N1CCc2ccccc21)Cc1ccccc1 | · | -6
Cc1nccc(-c2cc(-c3ccc(Cl)cc3Cl)no2)n1 | -1.2 | ·
NC(=O)c1ccsc1NC(=O)c1csc2c1CCCC2 | 1.6 | 3
Cn1c(=O)[nH]c(=O)c2c1ncn2CCN1CCOCC1 | -1.9 | -11
COc1cccc(CNC(=O)C(Cc2ccccc2)n2cccc2)c1 (stereo not drawn) | 1.2 | 17
CSc1nc(C(F)(F)F)nc(N)c1C#N | -1.4 | ·
Cn1c(-c2c(-c3ccccc3)n[nH]c2-c2cccs2)nc2ccccc21 | · | -4
C(=N\n1cnnc1)/c1ccc(OC2OCCOC2Oc2ccc(/C=N/n3cnnc3)cc2)cc1 (stereo not drawn) | · | -7
COc1ccc(Cl)cc1NC(=O)CN(C)C(=O)Cc1coc2c(C)c(C)ccc12 | · | 11
Cc1cc(N2CCN(C3=NCC(C)(C)S3)CC2)n2c(nc3ccccc32)c1C#N | 1.4 | 5
O=C(/C=C1\Sc2ccccc2NC1=O)NCc1cccnc1 | -0.8 | 8
CCn1c(CNC(=O)C(C)(C)C)nc2ccccc21 | · | -19
CC(C)=C1CCC(C)C/C1=N\O (stereo not drawn) | · | -38
CS(=O)(=O)CC(=O)NC1CCCCC1 | -0.4 | ·
N#Cc1ccccc1S(=O)(=O)Nc1ccc2c(c1)C(=O)OC2 | 3.5 | ·
O=C(Nc1cc(Cl)cc(Cl)c1)c1ccccc1O | 2.5 | ·
Cc1oc(C(=O)O)cc1CN1CCCC1 | -6.7 | 9
O=C(CSc1nnc(COc2ccc(F)cc2)o1)N1c2ccccc2CCc2ccccc21 | 0.1 | 1
CCOC(=O)c1oc2ccccc2c1COC(=O)C1=NN(c2ccccc2)C(=O)CC1 | · | 13
O=C1CCC(C(=O)N2CCN(Cc3ccccc3)CC2)N1 (stereo not drawn) | 2.9 | 28
CC(C)(C)c1ccc(N2C(=O)CCC2=O)cc1 | 1.5 | -3
Cc1ccc(C)c(CN2C(=O)c3ccccc3S(=O)c3ccc(C(=O)N4CCCCCC4)cc32)c1 (stereo not drawn) | 0.2 | 11
COC(=O)C1=CN(Cc2cccs2)C=C(C(=O)OC)C1c1cccs1 | · | -3

Structural class, those above containing a CF3 group (three)
SMILES | MgrA DNA FP | S aureus helic
COC(=O)c1cnc(Nc2ccccc2)nc1C(F)(F)F | 1.3 | ·
CN1CCN(C(=O)CSc2nc(-c3ccc(F)cc3)cc(C(F)(F)F)c2C#N)CC1 | -0.9 | 11
CSc1nc(C(F)(F)F)nc(N)c1C#N | -1.4 | ·
